gsp ag – qHTS for Agonist of gsp, the Etiologic Mutation Responsible for Fibrous Dysplasia/McCune-Albright Syndrome: qHTS. gsp mutant cells, cAMP HTRF, 30 min; control for the full effect not named in the record. 340,000 tested, 0.13% active. Potency, µM (highest dose often 76.9 µM), inactives show top-dose activation (cAMP increase), usual class: activators; active = well fitted activation curve with a large enough effect; inconclusive = small, poorly fitted or top-dose-only effect, or another doubt; inactive = no such curve, though single readings can be large or run the other way; cell line not stated here;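 note: phosphodiesterase inhibitor Ro 20-1724 added with compounds to block cAMP breakdown; potency is the fitted concentration of half-maximal effect; nearly all actives have a fitted effect of over 60% in size; about a fifth of the inactives were tested at one dose only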
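Cells stably selected in G418 were plated at 2000/well, grown 16-24 hr, then given compounds in DMSO with the PDE inhibitor […] (300 uM solution added) for 30 min at 37C; cAMP was read by HTRF.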
Sfp PPTase inh – qHTS Assay for Inhibitors of Bacillus subtilis Sfp phosphopantetheinyl transferase (PPTase) | 4'-phosphopantetheinyl transferase ffp (Bacillus subtilis), Q9F4F7 | Biochemical Sfp PPTase activity, qHTS | Potency, µM, without a hit: max response, negative = inhibition, actives largely listed as inhibitors | 310,000 tested, 3.5% active | AID 1490, 2009; active = well fitted inhibition curve with a large enough effect; inconclusive = small, poorly fitted or top-dose-only effect, or another doubt; inactive = no such curve, though single readings can be large or run the other way;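 note: the enzyme is Sfp with the accession as filed and its product quenches rhodamine fluorescence; potency is the fitted concentration of half-maximal effect; 0% = enzyme reaction without inhibitor and -100% = no enzyme wells; top concentration of the series not given in the record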
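After 15 min at room temperature with compound, 15 nM Sfp received 5 uM rhodamine-CoA plus 12.5 uM BHQ-2-ybbR (50 mM Hepes pH 7.6, 10 mM MgCl2). Rate came from the fluorescence difference over 30 min, ex 525/em 598 nm.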
gsp antag – qHTS for Antagonists of gsp, the Etiologic Mutation Responsible for Fibrous Dysplasia/McCune-Albright Syndrome: qHTS | AID 624288, 2012 | gsp-mutant cells, cAMP HTRF, 30 min; control for the full effect not named in the record | 340,000 tested, 0.4% active | Potency, µM (titrated, usually from 76.9 µM), inactives show at the highest dose activity change, negative = inhibition, hits mostly inhibitors; active = falling curve of any shape with a large fitted effect; inconclusive = falling curve, mostly with a smaller effect; inactive = flat or rising curve; cell line not stated here;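 note: intracellular cAMP measured with PDE inhibitor Ro 20-1724 present during compound exposure; potency is the fitted concentration of half-maximal effect; % is set by controls: 0 for no effect and ±100 for the full control effect; nearly all actives have a fitted effect of over 65% in size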
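G418-selected cells were plated in DMEM/10% FBS for 16-24 h at 37C, then treated with compounds plus the PDE inhibitor […] (300 uM solution added) for 30 min at 37C. Intracellular cAMP was measured by HTRF after 30 min lysis at room temperature.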
Menin-MLL FL inh – qHTS Assay for Inhibitors Targeting the Menin-MLL Interaction in MLL Related Leukemias: Competition With Fluorescein Labeled MLL-derived Peptide. Fluorescence polarization, fluorescein-MLL peptide displacement from menin. AID 1766, 2009. 290,000 tested, under 10 active. FP activity change, % at 61.4 µM; inconclusive = falling polarisation curve, or a change in total fluorescence; inactive = total fluorescence flat and polarisation flat or rising; no compound was filed as active; the % refers to the polarisation; negative = inhibition;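 note: % of control where 0% means no effect; inhibitors lower the polarisation; unlabelled MLL peptide was the positive control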
TRPV1 PAM – HTS Assay for Compounds that Act as Potentiators of the Vanilloid Receptor 1; Transient receptor potential cation channel subfamily V member 1 (Homo sapiens), Q8NER1; TRPV1-expressing cells, Fluo-8 calcium influx, capsaicin EC20 potentiation; host cell line not named in the record; control for the full effect not named in the record; 320,000 tested, 0.02% active; potentiation, % at 8.33 µM; AID 540277, 2011; active means potentiation above 80%; inconclusive means 30% to 80%; inactive means below 30%; note: 0% is about no effect
Target sequence (Q8NER1 whole entry, looked up): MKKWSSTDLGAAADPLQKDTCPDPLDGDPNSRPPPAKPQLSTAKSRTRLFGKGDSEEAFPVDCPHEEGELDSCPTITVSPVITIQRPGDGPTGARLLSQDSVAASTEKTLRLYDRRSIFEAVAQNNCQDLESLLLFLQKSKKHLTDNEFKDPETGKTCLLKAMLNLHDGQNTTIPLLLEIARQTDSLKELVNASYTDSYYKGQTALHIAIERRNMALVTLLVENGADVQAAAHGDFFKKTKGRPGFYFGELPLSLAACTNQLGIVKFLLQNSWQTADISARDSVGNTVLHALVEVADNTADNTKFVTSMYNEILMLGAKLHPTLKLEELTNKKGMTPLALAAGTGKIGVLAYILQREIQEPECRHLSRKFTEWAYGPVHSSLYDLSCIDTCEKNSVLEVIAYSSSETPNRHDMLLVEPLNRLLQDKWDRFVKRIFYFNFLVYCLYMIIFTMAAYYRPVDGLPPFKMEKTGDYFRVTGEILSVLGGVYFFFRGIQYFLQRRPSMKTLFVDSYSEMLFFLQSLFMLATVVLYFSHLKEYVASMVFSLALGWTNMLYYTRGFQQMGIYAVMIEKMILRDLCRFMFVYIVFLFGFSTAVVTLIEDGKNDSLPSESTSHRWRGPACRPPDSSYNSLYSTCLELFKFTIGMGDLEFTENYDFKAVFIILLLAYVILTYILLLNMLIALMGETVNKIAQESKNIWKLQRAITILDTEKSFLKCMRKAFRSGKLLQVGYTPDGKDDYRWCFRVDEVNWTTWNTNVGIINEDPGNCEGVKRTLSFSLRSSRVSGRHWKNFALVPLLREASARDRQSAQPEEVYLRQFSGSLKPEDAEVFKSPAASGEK
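Cells expressing TRPV1 were dye-loaded with Fluo-8 and read kinetically: 10 s baseline, 3 min after compound (agonist portion), then 2 min after EC20 capsaicin (allosteric enhancer portion). Calcium-bound dye fluorescence at 480/520 nm.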
ClpP mod – qHTS Assay for Activators of ClpP | ATP-dependent Clp protease proteolytic subunit (Bacillus subtilis (strain 168)), P80244 | purified B. subtilis ClpP, FRET peptide cleavage, 20 min | Potency, µM (top dose mostly 57.5 µM), without a hit: at the top dose activity change, negative = active | 340,000 tested, 1.9% active | AID 651965, 2013; active = well fitted falling curve with a large enough effect; inconclusive = small, poorly fitted or top-dose-only effect; inactive = no such curve, though single readings can be large or run the other way; note: potency is the fitted concentration of half-maximal effect; the source files actives as falling curves though it sought activators and does not explain the sign; nearly all actives have a fitted effect of over 65% in size; many hits overshoot -100%
Target sequence (P80244 whole entry, looked up): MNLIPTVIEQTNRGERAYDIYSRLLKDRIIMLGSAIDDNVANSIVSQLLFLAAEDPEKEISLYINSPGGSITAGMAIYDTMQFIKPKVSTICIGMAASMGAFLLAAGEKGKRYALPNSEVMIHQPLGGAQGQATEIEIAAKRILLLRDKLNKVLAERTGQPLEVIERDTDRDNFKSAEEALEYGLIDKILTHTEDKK
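Purified B. subtilis ClpP, 10 microg/mL final in Tris/HCl pH8 with KCl, BSA, glycerol and Tween-20, cleaved an Abz/nitrotyrosine-quenched decapeptide. Fluorescence (ex 320, em 430) was read at 0 and 20 min at room temperature. Delta was normalized to 5.8 microM ADEP and DMSO/no-enzyme controls.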
D2 potentiator – Beta-Arrestin HTS for Positive Allosteric Modulators of the Human D2 Dopamine Receptor: Potentiators; D(2) dopamine receptor (Homo sapiens), P14416; DiscoveRx D2 beta-arrestin cells, luminescence, 90 min; 100% = 57 uM dopamine signal; potentiation, % (test concentration not listed); 360,000 tested, 0.23% active; AID 624464, 2012; active = potentiation of 50% or more; inconclusive = 30% to 50%; inactive = 30% or less;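 note: compound concentration not given in the record; tested on top of an EC20 dose of dopamine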
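D2 cells co-treated with compound plus 50 nM dopamine (EC20) for 90 min at 37 deg C to detect potentiation. Beta-arrestin recruitment was read as enzyme-fragment luminescence after 1 h at ambient temperature. Full response was set by 57 uM dopamine.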
The depositor's hits bear a star; ? = inconclusive; · = not tested or not shown; & = joins results of further samples; [ ] = dose if it differs, or a comment. No enrichment for hits; overall some 5.1% were active at least once.

SMILES	gsp ag	Sfp PPTase inh	gsp antag	Menin-MLL FL inh	TRPV1 PAM	ClpP mod	D2 potentiator
COc1cccc(-c2ccc3c(c2)O[C@@H](CN(C)Cc2cncnc2)[C@@H](C)CN([C@H](C)CO)S3(=O)=O)c1	?	·	·	·	·	?	-4.9
Cc1noc(/C=C/NCc2cccnc2)c1S(=O)(=O)N(C)CC(=O)N1CCc2ccccc21	-3.1%	-8.5%	-15.8%	3.3	1.0	-3.0%	-6.1
CCN1CCN(C(CNS(=O)(=O)c2ccc(F)cc2)c2cccnc2)CC1 (stereo not given)	?	-4.5%	7.5%	·	0.8	-0.3%	1.4
COC(=O)c1nnn(-c2nc(N3CCOCC3)nc(N3CCOCC3)n2)c1C	-21.6%[15.4 µM]	4.7%	-0.2%	-0.2	-5.8	-4.2%	-3.9
O=C(c1cccs1)N1CCN=C1SCc1cccnc1	?	10.8%	-3.9%	2.4	0.8	2.9%	-4.9
O=c1[nH]c(=S)ccn1C1OC(CO)C(O)C1O (stereo not given)	·	·	3.8%	·	·	0.5%	-9.3
CCCCN(C)CCNC(=O)c1cc2c(-c3cccc(OC)c3)nn(C)c2s1	?	5.2%	5.6%	0.8	0.4	·	-6.5
COC(=O)CNC(=O)Cc1c(F)cccc1Cl	-16.5%	16.6%	5.7%	3.6	-3.5	0.7%	-7.0
Cc1nnc(SCC(=O)NCCc2ccccc2)s1	?	25.7%	4.7%	-6.4	0.7	-2.3%	-6.6
O=C(CSc1ccccn1)N1CCN(C(=O)CSc2ccccn2)CC1	19.3%	16.4%	4.1%	6.0	-0.1	-1.1%	-9.5
CC(C)c1onc(C(=O)NCCc2ccccc2)c1[N+](=O)[O-]	-50.3%[inhibitor]	-4.1%	16.8%	2.1	-8.8	·	-5.9
Cc1ccc(Nc2cc(=O)[nH]c(=O)[nH]2)cc1C	-1.2%	14.2%	2.4%	-2.6	-2.6	-0.9%&2.4%	-11.2
CCOc1ccc(/C=N/N2CCN(Cc3ccccc3)CC2)cc1	2.8%[15.4 µM]	2.0%	3.4%	-5.6	-9.2	0.9%	-10.3
Cc1cc(=O)oc2cc(OCC(=O)OCC(=O)Nc3ccccc3Br)ccc12	-10.8%[15.4 µM]	-5.8%	-6.8%	-1.1	7.1	·	-3.4
O=C(COC(=O)c1ccc(S(=O)(=O)N2CCOCC2)cc1)NC1CCCCCC1	-22.9%	20.6%	-11.5%	-0.5	-17.8	0.7%	-19.5
CCN(CC)C(=O)c1[nH]cnc1C(=O)Nc1ccccc1	21.3%	·	-0.9%	·	-4.0	-1.0%	-10.5
CCOC(=O)c1cnc(-c2ccccc2)nc1Oc1cccc(Cl)c1	0.8%	5.4%	-0.8%[15.4 µM]	2.0	·	-4.5%	-6.7
COc1ccccc1CNC(=O)CSc1nnc2c(n1)[nH]c1ccc(F)cc12	?	11.7%	14.9%	10.0	1.8	·	-2.0
CCOC(=O)Cn1c(CN2CCN(C(=O)c3ccco3)CC2)nc2c1c(=O)n(C)c(=O)n2C	29.4%	11.0%	-10.7%	0.1	15.7	-0.4%	-0.3
O=C(O)c1ccc(NC(=O)c2ccc3c(c2)C(=O)N(c2ccccc2)C3=O)cc1	3.0%	9.9%	7.5%	4.8	11.6	1.4%	-4.9
Nc1ccc(-c2nc3nc(N)nc(N)c3nc2-c2ccc(N)cc2)cc1	6.7%	14.7%	4.2%	?	-22.1	·	-5.3
O=C(NC1CC1)C1CC(=O)N(c2ccccc2)C1 (stereo not given)	-35.9%	8.8%	2.0%	0.0	-4.6	·	-3.1
O=C1CSC(c2ccccc2)N1c1nc(-c2ccc(Cl)cc2Cl)cs1 (stereo not given)	-64.5%	-0.5%	1.2%	0.4	-1.5	2.1%	-21.4
Cc1cc2[nH]c(=O)c(=O)[nH]c2cc1S(=O)(=O)NCC(C)c1ccccc1 (stereo not given)	-3.5%	·	·	·	·	4.0%	-8.1
CN(c1ccccc1C(=O)Nc1ccc(S(=O)(=O)N2CCCC2)cc1)S(C)(=O)=O	-23.2%	10.6%	0.6%	-0.6	17.0	-0.9%	-3.5
N#Cc1c(N2CCCCC2)nc(N)c2c(N)nc(SCC(=O)O)cc12	-16.9%[15.4 µM]	8.91µM*	-8.7%	?	1.3	·	0.8
O=C(O)CN1C(=O)/C(=C\c2cccc(OCc3ccc(Cl)cc3)c2)SC1=S	-13.5%	?	?	2.5	2.0	-1.5%	-1.8
CC(C)Cc1ccccc1O	·	17.2%	·	-1.0	-2.3	·	·
COC(=O)N/N=C\c1ccc(OC/C=C/c2ccccc2)cc1	17.7%	3.3%	-3.8%	0.1	-7.4	-1.2%	-19.7
COc1ccc(/C=N/n2c(N)nc(-c3ccccc3)c2-c2ccccc2)cc1	15.6%	-16.0%	-2.3%	4.1	-8.1	-2.1%	-4.8
COC(=O)c1ccc2[nH]c(C)c(CN3CCCC3)c(=O)c2c1	12.8%	13.5%	-4.7%	2.5	-4.9	28.2µM*	-18.0
COc1ccccc1N1CCN(C(=S)Nc2ccc(F)cc2)CC1	-4.6%	22.7%	-6.3%	6.8	1.3	·	-15.4
COc1ccc2nc(NC(=O)CSc3nnc(C)s3)sc2c1	21.7%	2.4%	4.7%	3.4	·	-3.8%	5.6
O=C(C1CC=CCC1)N1CCN(C(=O)C2CC=CCC2)CC1 (stereo not given)	-8.1%	5.4%	-10.3%	-1.9	-3.6	0.5%	-2.5
Cc1ccc(C)c(N2CCN(C(=O)CN3C(=O)c4ccccc4C3=O)CC2)c1	?	-13.4%	?	-3.6	-5.9	0.6%	-11.5
CCc1ccc(CNCc2cccs2)cc1	11.3%[15.4 µM]	-1.6%	-15.7%	-1.0	-3.1	·	-14.5
CN(Cc1ccccc1)C(=O)c1cccc(N2C(=O)NC3CC2(C)Oc2ccccc23)c1 (stereo not given)	-6.4%	7.3%	0.1%	1.0	0.6	0.8%	0.1
Fc1ccc(-c2cnn3c(-c4ccncc4)ccnc23)cc1	18.4%[15.4 µM]	9.9%	8.8%	0.3	5.5	·	-2.8
Cc1ccc(NC(=S)N2CCC(NC(=O)c3ccccc3)CC2)cc1	21.6%	28.0%	1.7%	1.3	6.1	·	-8.9
O=S(=O)(c1ccc(-n2cnnn2)cc1)N1CCN(c2ccccc2F)CC1	-2.0%	11.4%	-6.9%	·	2.6	0.3%&1.1%	-13.1
Cc1nc(NC(=O)c2cc3c(C)nn(-c4ccccc4)c3s2)sc1C(=O)Nc1ccccc1	15.3%	-11.0%	27.1%	1.5	5.5	-11.2%	9.7
CCOc1ccccc1N1CCN(C(=S)NC(=O)C23CC4CC(CC(C4)C2)C3)CC1	-13.9%	10.4%	-5.0%	1.9	15.2	0.8%	-28.7
COc1ccc(-c2nnc(SCC(=O)N3CCC(Cc4ccccc4)CC3)o2)cc1OC	0.0%	4.2%	-17.3%	0.4	3.4	-0.4%	-15.4
CCOc1cccc2cc(C(=O)N3CC(C)OC(C)C3)c(=O)oc12 (stereo not given)	-9.4%	9.2%	5.5%	-3.8	5.2	?	0.9
COc1ccc(-c2ncc3ccccn23)cc1OC	-20.0%	?	-12.5%	?	-10.1	?	0.5
Cc1ccc(C)c(NC(=S)N2CCN(Cc3ccccc3)CC2)c1	-35.7%[inhibitor]	12.9%	1.1%	-0.7	11.5	-4.7%	-2.9
COc1ccc(N2CCN(C(=O)C(Cc3ccccc3)n3cccc3)CC2)cc1 (stereo not given)	-9.4%	12.5%	-7.0%	1.4	-7.0	-4.0%	-3.4
O=S(=O)(c1cccs1)N1CCC(CO)(Cc2cccc(F)c2)CC1	4.4%[15.4 µM]	-7.1%	-33.5%	5.6	-14.5	-0.4%	-6.0
COc1cc(C=O)ccc1OCCOCCOc1c(C)cc(Cl)cc1Cl	-22.4%	?	?	22.4	3.5	-0.9%	-10.3
COc1ccc(OC)c2sc(N3CCN(C(=O)c4ccc([N+](=O)[O-])s4)CC3)nc12	1.8%	·	-34.0%	·	?	0.3%	0.1
O=C(Nc1nc(-c2cccc([N+](=O)[O-])c2)cs1)c1cccc([N+](=O)[O-])c1C(=O)O	18.8%	-3.4%	3.3%	0.9	3.8	·	-1.8
CCN1CCCc2cc(CN(CCN3CCOCC3)C(=S)Nc3cccc(Cl)c3)ccc21	-32.6%[15.4 µM]	13.9%	-11.8%	-0.4	2.9	·	-8.3
COCCCNCC(=O)Nc1ccc(OC(F)(F)F)cc1	-0.4%[15.4 µM]	2.4%	23.2%	-1.0	10.9	0.6%	-12.8
CC1CCN(S(=O)(=O)CCNC(=O)c2ccccc2)CC1	-17.7%	·	9.8%	·	0.3	-2.2%	-0.1
CC(C)CN1C(=O)c2ccc(C(=O)Nc3nccs3)cc2C1=O	-52.9%[inhibitor]	4.5%	-16.8%	1.2	7.2	-3.9%	-5.0

Single records (already shown).
Profile of `COc1cc(C=O)ccc1OCCOCCOc1c(C)cc(Cl)cc1Cl` = gsp ag: -22.4%; Sfp PPTase inh: ?; gsp antag: ?; Menin-MLL FL inh: 22.4; TRPV1 PAM: 3.5; ClpP mod: -0.9%; D2 potentiator: -10.3
Profile of `O=C(Nc1nc(-c2cccc([N+](=O)[O-])c2)cs1)c1cccc([N+](=O)[O-])c1C(=O)O` = gsp ag: 18.8%; Sfp PPTase inh: -3.4%; gsp antag: 3.3%; Menin-MLL FL inh: 0.9; TRPV1 PAM: 3.8; ClpP mod: ·; D2 potentiator: -1.8
